GLA inh pH 4.5 = blocks human alpha-galactosidase A at pH 4.5 | activity change, negative = inhibition, % at 105 µM | 230,000 tested, under 10 active | P06280 | purified enzyme, 4-MU-alpha-Gal fluorescence, pH 4.5; inconclusive = small, poorly fitted or top-dose-only inhibition, or a rising curve; inactive = flat fitted curve, though single readings scatter; no compound was filed as active;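 note: 0% = full activity with enzyme and -100% = basal without enzyme; dose as in the result columns while the protocol names 77 µM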
Target sequence (P06280 whole entry, looked up): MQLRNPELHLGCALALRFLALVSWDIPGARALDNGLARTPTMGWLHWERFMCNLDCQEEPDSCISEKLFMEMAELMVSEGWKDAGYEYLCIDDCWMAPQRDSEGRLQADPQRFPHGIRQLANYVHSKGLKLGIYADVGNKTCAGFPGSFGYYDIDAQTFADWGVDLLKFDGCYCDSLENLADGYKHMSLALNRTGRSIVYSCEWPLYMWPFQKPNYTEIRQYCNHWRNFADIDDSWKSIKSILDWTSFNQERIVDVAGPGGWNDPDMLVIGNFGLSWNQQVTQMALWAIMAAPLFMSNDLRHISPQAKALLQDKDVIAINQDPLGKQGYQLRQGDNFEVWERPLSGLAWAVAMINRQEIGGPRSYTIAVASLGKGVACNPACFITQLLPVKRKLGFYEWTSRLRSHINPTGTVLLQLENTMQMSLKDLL
Rango release inh = prevents RanGTP from dissociating the Rango-importin beta complex; O95149+P62826; Biochemical FRET Rango-importin beta, RanGTP-induced dissociation; Potency, µM (series often up to 46.1 µM), without a hit: at the highest dose activity change, negative = inhibition; actives 0.071% (n = 340,000); active means falling FRET ratio curve, often poorly fitted, with flat reads before Ran was added; inconclusive means other falling curves, or compound fluorescence or quenching; inactive means flat or rising ratio curve;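 note: potency is the fitted concentration of half-maximal effect; % of control where 0% means no effect; nearly all actives have a fitted effect of over 45% in size; -100% = wells without RanGTP and RCC1; the record marks most hits as doubtful in a second field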
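Recombinant Rango FRET biosensor (EYFP–snurportin 1 IBB–cerulean CFP10) at 0.1 uM premixed with 0.25 uM importin beta in PBS, 1 mM DTT, 0.02% Tween-20, 0.1% BSA. Compound added 5 min; RanGTP-RCC1 (0.6 uM Ran, 2 mM GTP, 0.2 uM RCC1) then triggers release, read at 45 min.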
Rango-impB inh = prevents formation of the Rango-importin beta complex. Potency, µM (highest dose often 92.2 µM), for inactives: at the highest dose inhibition of complex formation. Rango CFP/YFP FRET sensor + importin beta, 45 min. actives 0.031% (n = 340,000). Q14974; active = rising FRET ratio curve, often small or poorly fitted; inconclusive = mostly compound fluorescence or quenching in the first reads; inactive = flat curves in all reads;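 note: potency is the fitted concentration of half-maximal effect; 0% = DMSO wells and 100% = buffer wells lacking importin beta; nearly all actives have a fitted effect of over 15% in size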
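FRET biosensor (snurportin 1 IBB flanked by EYFP and cerulean), 50 nM, with compound 5 min, then 0.125 microM importin beta in PBS, 1 mM DTT, 0.02% Tween-20, 0.1% BSA. CFP/YFP ratio read after 45 min at room temperature; pre-read flags interference.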
miR-21 FLuc = miR-21 reporter, rising signal; 340,000 tested, under 10 active; Potency, µM (highest dose often 38.3 µM), inactives show at the highest dose reporter change, positive = more light; HeLa miR-21 FLuc reporter, luciferase, 48 h; AID 2288; active = well fitted rising curve with a large enough effect; inconclusive = small, poorly fitted or top-dose-only effect; inactive = no such curve, though single readings can be large or run the other way;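 note: % of control where 0% means no effect; miR-21 action dims this reporter so a rising signal means less miR-21 action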
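Compounds were titrated across several concentrations (up to approximately 40 uM) and incubated 48 hours with HeLa miR-21-FLuc reporter cells (miR-21 target sequence downstream of FLuc, endogenous miR-21). Readout was firefly luciferase luminescence after lytic detection reagent.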
* hit, by the source's call; ? = inconclusive; nt = not tested or not shown; & = joins results of further samples.

SMILES	GLA inh pH 4.5	Rango release inh	Rango-impB inh	miR-21 FLuc
OC1/C(=C/c2ccccc2C(F)(F)F)N2CCC1CC2 (stereo not given)	-2	4%	0.2%	-1%
CCOC(=O)c1c(NS(=O)(=O)c2ccccc2)n(CCCOC)c2nc3ccccc3nc12	14	?	?	11%
Cc1cc(Cl)ccc1OCC(=O)N1CCN(C)CC1	7	27%	-4.8%	-2%
COc1ccccc1OCC#CCN1CCCC1	3	-14%	0.3%	3%
O=C(CNC(=O)c1cccc(Cl)c1)Nc1ccc(Br)cc1C(=O)c1ccccc1	-5	-2%	-0.5%	4%
CC(C)c1ccc(NC(=O)CCNC(=O)N2C[C@H]3C[C@@H](C2)c2cccc(=O)n2C3)cc1	nt	7%	-0.1%	-5%
C[C@@H]([C@@H](O)c1ccccc1)N(C)C(=O)Cc1ccccc1	nt	-16%	1.4%	nt
O=C(NC1(C(F)(F)F)Oc2ccccc2O1)N1CCC2(CC1)OCCO2	-5	3%	-3.9%	-4%
O=C1NC(=S)N(c2ccccc2F)C(=O)/C1=C\c1cccs1	-1	-15%	?	-1%
COC(=O)C1=C(c2ccc(F)cc2OCc2ccccc2)C[C@@H]2CC[C@H]1N2C(=O)NCc1ccccc1C(F)(F)F	nt	-10%	2.2%	nt
O=C1SC(Cc2ccccc2)C(=O)N1c1ccccc1 (stereo not given)	-1	-7%	2.9%	-1%
CCCCn1c(=O)c(C(=O)Nc2ccccc2)c(O)c2ccccc21	8	6%	-0.9%	-8%
COC(=O)C(O)(c1c(C)[nH]n(-c2ccccc2)c1=O)C(F)(F)F (stereo not given)	-14	8%	0.0%	-5%
CCCCn1c(O)c(C(CC)=Nc2ccc(OC)cc2OC)c(=O)[nH]c1=O	2	4%	1.6%	-2%
COC1C(O)C(C)OC(OC2CCC3(C=O)C(CCC4C3CCC3(C)C(C5=CC(=O)OC5)CCC43O)C2)C1O (stereo not given)	nt	7%	0.1%	nt
C[C@]12CCC3C(CC[C@H]4C[C@@H](O)[C@H](O)C[C@]34C)C1CC[C@@H]2O (stereo not given in full)	nt	-2%	-1.4%	nt
CC=C(C)C(=O)OC1CCN2CC=C(COC(=O)C(O)(C(C)OC)C(C)(C)O)C12 (stereo not given)	nt	-1%	2.2%	nt
O=C1NC(=O)C(CCc2ccncc2)(CCc2ccncc2)C(=O)N1Cc1ccc(F)cc1	9	?	3.9%	0%
COC(=O)C1=C(c2ccc(OC(F)(F)F)cc2)C[C@@H]2CC[C@H]1N2C(=O)NC1Cc2ccccc2C1	nt	9%	-0.6%	nt
CCCC[N+]12CCC(CC1)C(Cc1ccccc1)C2 (stereo not given)	3	8%	-1.5%	1%
COC(=O)c1cc(C(O)(C(=O)OC)C(F)(F)F)c(/N=C/N(C)C)s1 (stereo not given)	4	-4%	-0.1%	0%
Cc1ccc(CN2CCCC(C(=O)c3ccc4c(c3)OCO4)C2)cc1C (stereo not given)	-8	24%	2.1%	1%
Fc1ccc(Cn2nnnc2C(c2ccc(Cl)cc2)N2CC=C(c3ccc(F)cc3)CC2)cc1 (stereo not given)	2	10%	4.9%	-11%
COc1ccc(OC)c(N2C(=O)NC(=O)/C(=C\c3ccc([N+](=O)[O-])s3)C2=O)c1	-10	-13%	?	4%
O=C(O)CC1OCC=C2CN3CCC45C6=CC(=O)C(=O)C([N+](=O)[O-])=C6NC4C1C2CC35 (stereo not given)	-5	10%	-1.0%	5%
Cn1c(O)c(/C=C2\C=Nc3ccccc32)c(=O)n(C)c1=O	nt	-10%	?	5%
O=C(Cn1ccc2ccccc2c1=O)NCC(=O)N1CCC2(CC1)OCCO2	0	?	0.3%	0%
O=C1NC(=O)C(=C/C=C/c2coc3ccc(Br)cc3c2=O)C(=O)N1	2	nt	nt	-2%
N#CC1C(C#N)C2CCC1C1C2N1c1ccccc1 (stereo not given)	nt	18%	1.2%	nt
CC(C)(C#CCCCCC#CC(C)(C)[N+](C)(C)C)[N+](C)(C)C	-4	nt	nt	-4%
Cc1[nH]c2ccccc2c1CCCNC1CCCCC1	11	0%	3.7%	-10%
Cc1ccc(S(=O)(=O)N2CC3CC(C2)c2cccc(=O)n2C3)cc1 (stereo not given)	7	-4%	-3.1%	0%
O=C(Oc1ccc(Cl)c2ccccc12)N1CCCCC1	3	-11%	-2.3%	-35%
CC1(C)CSC(=NCc2ccccc2)N1	3	11%	0.1%	-17%
N/C(=N\N=C\c1ccc(O)cc1O)N[N+](=O)[O-]	-4	-8%	-2.8%	0%
CCOc1ccccc1N=Cc1c(O)n(C)c(=O)n(C)c1=O	nt	?	-0.7%	0%
Cc1ccc(C2(O)CN3CCC2CC3)cc1 (stereo not given)	nt	-12%	6.0%	-1%
COc1cc(CNCCc2ccc3c(c2)OCO3)cc(OC)c1OC	1	-13%	3.7%	-7%
CCCOP(=O)(OCCC)C(NC(=O)c1cc(OC)c(OC)c(OC)c1)c1ccccc1 (stereo not given)	0	-3%	-1.4%	14%
COCCNC(=O)Cn1cc(/C=C2\C(=O)NC(=O)N(c3cccc(C)c3C)C2=O)c2ccccc21	nt	1%	-2.6%	-1%
CCN(CC)c1ccc(/C=C2/C(=O)NC(=O)N(Cc3ccco3)C2=O)cc1	4	?	?	1%
Cc1ccc(N2C(=O)NC(=O)C(CCc3ccccn3)(Cc3cccc(Cl)c3Cl)C2=O)cc1 (stereo not given)	-4	2%	?	0%
CC[C@H](C)/C=C(C)/C=C/C1=CC2=C(Cl)C(=O)[C@@](C)(OC(C)=O)C(=O)C2=CO1	nt	?	?	nt
C=CCN1C(=O)C2(C(C(=O)OCC)=C(N)Oc3ccccc32)C2=C1CCCC2=O (stereo not given)	0	7%	-1.9%	-4%
CCCCNC(C)Cc1ccccc1 (stereo not given)	nt	0%	0.1%	nt
O=[N+]([O-])c1cccc(NP(=O)(N2CC2)N2CC2)c1	nt	15%	-3.1%	nt
CN1C(CC(O)c2ccccc2)CCCC1CC(O)c1ccccc1 (stereo not given)	nt	13%	0.4%	nt
Oc1ccc2c3c1OC1[C@H](O)CC[C@@]4(O)[C@@H](C2)N(CC2CC2)CC[C@]314 (stereo not given in full)	nt	4%&3%	?	nt

Structural class, those above containing sulfur.
SMILES	GLA inh pH 4.5	Rango release inh	Rango-impB inh	miR-21 FLuc
CCOC(=O)c1c(NS(=O)(=O)c2ccccc2)n(CCCOC)c2nc3ccccc3nc12	14	?	?	11%
O=C1NC(=S)N(c2ccccc2F)C(=O)/C1=C\c1cccs1	-1	-15%	?	-1%
O=C1SC(Cc2ccccc2)C(=O)N1c1ccccc1 (stereo not given)	-1	-7%	2.9%	-1%
COC(=O)c1cc(C(O)(C(=O)OC)C(F)(F)F)c(/N=C/N(C)C)s1 (stereo not given)	4	-4%	-0.1%	0%
COc1ccc(OC)c(N2C(=O)NC(=O)/C(=C\c3ccc([N+](=O)[O-])s3)C2=O)c1	-10	-13%	?	4%
Cc1ccc(S(=O)(=O)N2CC3CC(C2)c2cccc(=O)n2C3)cc1 (stereo not given)	7	-4%	-3.1%	0%
CC1(C)CSC(=NCc2ccccc2)N1	3	11%	0.1%	-17%

(listing goes on)
SMILES	GLA inh pH 4.5	Rango release inh	Rango-impB inh	miR-21 FLuc
Cc1cccc(NC(=O)CN2CCN(C(=O)COc3cccc(Br)c3)CC2)c1C	nt	-4%	-0.1%	nt
CCOc1cc(C)cc2oc(=O)c3c(c12)CCCC3	nt	-2%	0.7%	8%
[O-]c1ccccc1-[n+]1c(-c2ccccc2)cc(-c2ccccc2)cc1-c1ccccc1	nt	21%	-0.8%	nt
C=C1C2C[C@H](O)C(C)(C)[C@@]2(O)[C@H](O)C[C@]23C[C@@](C)(O)[C@H](CC[C@H]12)[C@H]3OC(C)=O (stereo not given in full)	8	0%	-0.8%	2%
C[N+]1(CC(COCc2ccccc2)OC(=O)Cc2ccccc2)CCOCC1 (stereo not given)	13	-16%	3.5%	-7%
Cc1ccc(-n2c(O)c(/C=N/NC(=O)c3ccncc3)c(=O)[nH]c2=O)cc1C	-8	?	?	-3%
O=C/C=C/c1ccccc1	-8	14%	2.0%	nt
O=C1NC(=O)N(CCc2ccc(F)cc2)C(=O)/C1=C/c1ccco1	1	-11%	?	0%
N#Cc1ccc(Cn2cc(C(=O)c3ccco3)c3ccccc32)cc1	0	10%	-2.3%	-1%
COC(=O)c1ccc(CN2CCSC2=N)cc1	nt	44%	7.7%	-1%
CCOP(=O)(OCC)C(NS(=O)(=O)c1ccccc1)C(Cl)(Cl)Cl (stereo not given)	4	7%	3.4%	19%
Cc1cccc(-n2c(O)c(C=Nc3ccccc3N)c(=O)[nH]c2=O)c1	-1	-7%	-0.9%	-43%
S=c1[nH]c2ccccc2[nH]1	9	-10%	1.7%	0%
O=c1c2ccccc2nc(CNc2ccccc2)n1-c1ccccc1	-4	-5%	4.6%	-5%
O=C(Nc1ccc(Cl)c(Cl)c1)c1ccco1	nt	2%	-0.2%	-35%
CNC(=O)O/N=C(\N)Cc1csc2ccc(Cl)cc12	3	6%	?	17%
CC12C(C(=O)O)C1(c1ccccc1)C2C(=O)O (stereo not given)	nt	0%	2.1%	nt
O=C(NCCCN1CCOCC1)C(Cl)(Cl)Cl	-5	-22%	-2.1%	-1%
Cc1[nH]c2ccc(O)cc2c1CCN	2&0	-18%	6.8%	nt
CCCc1nc2ccccc2c(=O)n1-c1cccc(OC)c1	1	-1%	5.1%	-21%
Cc1cccc(C)c1N1CCN(c2c(C)cccc2C)CC1	nt	9%	-2.7%	-1%
CNCCc1c[nH]c2ccc(O)cc12	-4&-3	8%	-1.7%	nt
Cc1ccc(C(=O)COC(=O)Cc2ccccc2)cc1	nt	3%	1.2%	-9%
COc1ccc2c(c1)CC1(CN2C)C(=O)NC(=O)N(c2ccc(C)cc2)C1=O (stereo not given)	-12	?	?	2%
Cc1nn(C)cc1/C=C1/CC2C3CC=C4CC(O)CCC4(C)C3CCC2(C)C1=O (stereo not given)	nt	0%	-3.3%	nt
COC1=CC2C3Cc4ccc(OC)c(O)c4C2(CCN3C)CC1=O (stereo not given)	nt	-13%	-0.1%	nt
Nc1ccncc1Cl	12	1%	1.1%	1%
COc1ccc2nc3oc(C(=O)N4CCC5(CC4)OCCO5)cc3cc2c1	11	20%	-0.1%	-30%
O=c1c2ccccc2nc(CSc2ncnc3nc[nH]c23)n1-c1ccc(Cl)c(Cl)c1	5	-1%	3.3%	-1%
N#CCCCCC#N	nt	7%	-0.2%	nt
O=C1CC(=O)N(Cc2ccccc2)C(=O)N1CCCCCCN1C(=O)CC(=O)N(Cc2ccccc2)C1=O	3	-2%	0.1%	-2%
N[C@@H](Cc1c[nH]c2ccccc12)c1nnc(SCc2ccc(Cl)cc2)o1	-2	8%	-4.5%	2%
CCCCn1c(O)c(C(C)=Nc2ccc(OCC)cc2)c(=O)[nH]c1=O	-2	6%	-5.6%	-5%
COc1ccc(C2=CC(c3ccc(OC)c(OC)c3)c3c(c4ccccc4oc3=O)O2)cc1OC (stereo not given)	-5	-13%	-0.2%	11%
CN(C)C(=O)Oc1ccc(Br)c2ccccc12	-4	-6%	-3.8%	-8%
c1cncc(CNC2CCCC2)c1	-4	7%	1.4%	0%
CC(C)(C)OC(=O)c1c(N)n(Cc2ccco2)c2nc3ccccc3nc12	?	?	?	-4%
CCCCNC(=O)c1c(N)n(Cc2ccc3c(c2)OCO3)c2nc3ccccc3nc12	-1	?	?	-3%
CN(C=O)CP(=O)(O)CN(C)C=O	3	?	-3.0%	1%
CC(C)c1ccc(OCC(=O)N2CCCN(C)CC2)cc1	nt	-6%	0.7%	-20%
CCOP(=S)(OCC)SCC(=O)NC(C(=O)O)C(C)C (stereo not given)	0	-11%	?	0%
COc1ccc(C(Nc2ccccc2)P(=O)(Oc2ccccc2)Oc2ccccc2)cc1 (stereo not given)	9	18%	4.2%	-2%
COC(=O)C1=C(c2ccc(OC(F)(F)F)cc2)C[C@@H]2CC[C@H]1N2C(=O)NCc1cccc2ccccc12	nt	-20%	0.7%	nt

Some of the compounds tested. The share of hits here may be higher or lower than overall.
